# NPYLR7 agonist = agonists of mosquito NPYLR7 receptor, primary screen, cell-based, Aedes aegypti, calcium fluorescence, mosquito biting behavior. HEK293T NPYLR7/Galpha15, GCaMP6s calcium fluorescence. activation, % at 10 µM. actives 0.15% (n = 270,000). AID 1259423, 2018; in the data active means activation above about 40%;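 further: 0% = vehicle and 100% = reference agonist at the receptor; some compounds past the cut are filed as inactive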
# NPYLR7 agonist max-min = also measured in NPYLR7 agonist; calls as there; activation, %; measured here: Max-Min RFU normalised activation; some inactives read as strong as hits;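 span of the calcium signal over five minutes; 0% = vehicle and 100% = native peptide agonist; compound fluorescence can raise it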
# * hit, by the source's call; & = joins results of further samples. These rows are one share of the data, so the mix of outcomes need not match the whole.
# The opening 6 compounds (preview)
SMILES,NPYLR7 agonist,NPYLR7 agonist max-min
COc1ccc(-c2cc(C(=O)N3CCN(c4ccccc4F)CC3)nc3c(-c4ccccc4)c(C)nn23)cc1,2,16
CN(CC1Cc2ccccc2CN1C)C(=O)c1ccc2c(c1)nnn2C (centres undefined),-1,5
O=C(C1COc2ccccc2O1)N1CCN(CCCOC(c2ccc(Cl)cc2)c2ccc(Cl)cc2)CC1 (centres undefined),-6,3
O=C(CN(CC(=O)N1CCOCC1)S(=O)(=O)c1ccc(Br)s1)N1CCOCC1,-6,-6
CC(C)c1cc(Br)c(NC(=O)N2CC(=O)N3CC(C)c4ccccc4C3C2)c(Br)c1 (centres undefined),1,-5
COc1ccc(C)cc1NC(=O)c1c([N+](=O)[O-])cnn1C,-1,-10

# The whole of this part (from the top)
SMILES,NPYLR7 agonist,NPYLR7 agonist max-min
COc1ccc(-c2cc(C(=O)N3CCN(c4ccccc4F)CC3)nc3c(-c4ccccc4)c(C)nn23)cc1,2,16
CN(CC1Cc2ccccc2CN1C)C(=O)c1ccc2c(c1)nnn2C (centres undefined),-1,5
O=C(C1COc2ccccc2O1)N1CCN(CCCOC(c2ccc(Cl)cc2)c2ccc(Cl)cc2)CC1 (centres undefined),-6,3
O=C(CN(CC(=O)N1CCOCC1)S(=O)(=O)c1ccc(Br)s1)N1CCOCC1,-6,-6
CC(C)c1cc(Br)c(NC(=O)N2CC(=O)N3CC(C)c4ccccc4C3C2)c(Br)c1 (centres undefined),1,-5
COc1ccc(C)cc1NC(=O)c1c([N+](=O)[O-])cnn1C,-1,-10
CC(c1ccccc1)n1cnn(CN2CCOC(c3ccc(F)cc3)C2)c1=S (centres undefined),-3,-5
COc1ccc(CNC(=O)Cn2nc(C(F)(F)F)cc2C)cc1,17,15
Cc1ccc(-c2nc(CS(=O)(=O)Cc3cc(=O)n4cc(C)ccc4n3)co2)c(C)c1,1,12
CC(C)Cc1nc(-c2nc3c([nH]2)CC(C)(C)CNC3=O)no1,4,6
Cc1ccc(S(=O)(=O)Nc2cc(CO)ccc2Cl)cc1F,-4&5,-4&4
COc1ccc(S(=O)(=O)N(C)C)c(C)c1C,6,2
COCCN(Cc1cccc(OS(=O)(=O)c2cccc(C(F)(F)F)c2)c1)C(=O)C(c1ccccc1)c1ccccc1,20,18
Cc1cn(CC(=O)N(C2CCCC2)C2CCS(=O)(=O)C2)c(=O)n1-c1ccc(C#N)cc1 (centres undefined),10,2
CC(c1ccccc1)c1nc2c(OCc3ccccc3)cccn2c1NCc1ccccc1 (centres undefined),4,16
Cc1ccc(CN(C)Cc2nc(-c3ccc(Cl)cc3)no2)o1,4,0
CCc1c(C)c(C#N)c2nc3ccccc3n2c1N1CCCC1,5,6
Cc1ccc(C(=O)Nc2ccc(N3CCc4ccccc4C3)c(C(=O)NCCN3CCOCC3)c2)cc1[N+](=O)[O-],16,16
Cc1ccsc1-c1nccc(CCC(F)(F)F)n1,-2,-3
COc1ccc(CNC(=O)c2sc(=O)n(Cc3c(C)cccc3C)c2C)cc1OC,11,3

# An excerpt of these results, as tab-separated lines:
canonical_smiles	NPYLR7 agonist	NPYLR7 agonist max-min
CC(c1ccccc1)c1nc2c(OCc3ccccc3)cccn2c1NCc1ccccc1 (centres undefined)	4	16
Cc1ccc(CN(C)Cc2nc(-c3ccc(Cl)cc3)no2)o1	4	0
CCc1c(C)c(C#N)c2nc3ccccc3n2c1N1CCCC1	5	6

# (further entries)
SMILES,NPYLR7 agonist,NPYLR7 agonist max-min
CC(C)c1ccc(N2CCC(C(=O)NCC3CCCO3)C2=O)cc1 (centres undefined),7,5
CCCc1nc(N2CCN(C(=O)Nc3cccc(Cl)c3)CC2)c2c3c(sc2n1)CCCC3,-10,-11
O=C(c1ccc2c(c1)OCO2)N1CCN(c2nc(C3CCCCC3)nc3sc4c(c23)CCCC4)CC1,-11,-7
COCCCN(CC(=O)N1CCc2sccc2C1COc1cccc(F)c1)C(=O)NC(C)C (centres undefined),-2,-2
Brc1c(-c2ccccc2)nc2ccccn12,4,-1
Cc1nnc(CN(C)c2ccc(-c3nc(-c4ccccc4F)no3)cn2)o1,21,6
CCCCNC(=O)N1CCCN(c2nc(CCC(C)C)nc3c2cnn3-c2cccc(Cl)c2)CC1,24,21
Cc1nnc(N(C)Cc2ccc(Cl)s2)c(C#N)c1C,0,-1
CC(C)NC(=O)N(Cc1cc(N)ccc1N(C)C)CC1CC1,-3,5
COc1ccc(CNC2CCOCC2)c(OC2CCCC2)c1,3,0
Cn1cc(CNC(=O)/C=C/c2ccc(-c3ccccc3F)o2)cn1,-5,571
COc1ccc(S(=O)(=O)NCC2CCCO2)cc1N1CCN(C(=O)c2cc(OC)c(OC)c(OC)c2)CC1 (centres undefined),4,2
CCOC(=O)CNC(=O)CSc1nnc(C)c2cnn(-c3ccccc3OC)c12,-8,-15
Cn1cc(NC(=O)NC2CCCC2)c2ccccc21,-1,-6
C=CCNS(=O)(=O)c1ccc2nc(NC(=O)C3CCCO3)sc2c1 (centres undefined),11,15
O=c1c2cnc3ncnn3c2ccn1Cc1ccc(Cl)cc1,2,7
Cn1c(Cc2ccccc2)nc2cnc(Nc3ccncc3)cc21,5,3
O=C(NN1C(=O)C2C(C1=O)C1C=CC2C12CC2)c1cccc(Br)c1 (centres undefined),3,2
CC1(C)CC(=O)C(C(c2ccccn2)c2c[nH]c3ccccc23)C(=O)C1 (centres undefined),-2,-3
CCc1ccc(NC(=O)CSc2nnc(-c3cccn(C)c3=O)n2CC)cc1,3,0

# Reformatted with each value named: entries from further up
CC(C)c1ccc(N2CCC(C(=O)NCC3CCCO3)C2=O)cc1 (centres undefined)
  NPYLR7 agonist: 7
  NPYLR7 agonist max-min: 5
CCCc1nc(N2CCN(C(=O)Nc3cccc(Cl)c3)CC2)c2c3c(sc2n1)CCCC3
  NPYLR7 agonist: -10
  NPYLR7 agonist max-min: -11
O=C(c1ccc2c(c1)OCO2)N1CCN(c2nc(C3CCCCC3)nc3sc4c(c23)CCCC4)CC1
  NPYLR7 agonist: -11
  NPYLR7 agonist max-min: -7
COCCCN(CC(=O)N1CCc2sccc2C1COc1cccc(F)c1)C(=O)NC(C)C (centres undefined)
  NPYLR7 agonist: -2
  NPYLR7 agonist max-min: -2

# Continued:
SMILES,NPYLR7 agonist,NPYLR7 agonist max-min
COc1cccc(F)c1-c1cncnc1,1,0
CC(C)Cc1cc(CNC(=O)c2ccccc2C2CCNC2)no1 (centres undefined),-2,-6
NS(=O)(=O)c1ccc(Sc2ccc3ccccc3c2)nc1,8,7
CN1C(=O)NC(c2cccc(Cl)c2Cl)C2=C1CN(CCC(=O)NCc1ccco1)C2=O (centres undefined),0,10
CN(Cc1cnn(-c2ccc(F)cc2)c1)c1nncc(-c2ccccc2)n1,-3,-4
Cc1ccccc1-c1cc(NCc2ccc(F)cc2F)n(C)n1,-4,-5
COc1cccc(C2c3cccn3CCCN2Cc2ccccc2C(F)(F)F)c1 (centres undefined),-1,1
COc1ccccc1-c1nc(CS(=O)(=O)C23CC4CC(CC(C4)C2)C3)cs1,12,8
COc1cccc(-c2cc(C(=O)NC3CCN(Cc4ccccc4)CC3)c(C)n2-c2ccccc2F)c1,14,17
COc1ccccc1C(=O)N(CCN(C)C)c1nc2c(Cl)cccc2s1,-10,-10
Cc1ccc(NC(=O)c2sc(=O)n(Cc3cccc(C(F)(F)F)c3)c2C)cc1,7,6
O=c1c2cnc3ncnn3c2ccn1-c1cccc(F)c1,3,7
CCNc1ncc(C(=O)N2CCC(=O)N(CC3CC3)C(C(C)C)C2)cn1 (centres undefined),24,19
CC1CCCC(N=c2c([N+](=O)[O-])nn(-c3ccccc3)n2O)C1C (centres undefined),2,3
CC(C)c1ccc(-n2c(C#Cc3ccccc3)n[nH]c2=S)cc1,0,-7
COC[C@@]12CN(C(=O)c3ccccc3)C[C@@H]1C(C)(C)COc1ccc(OC)cc12,4,13
Cc1c(C(C)NC(=O)c2csc(C(C)C)n2)cnn1-c1ccccn1 (centres undefined),7,-1
CCOC(=O)c1c(NC(=O)COC(=O)c2cccs2)sc2c1CCC2,5,4
Cc1ccc(C(=O)NCCN2C(=O)SC(=Cc3ccccc3F)C2=O)o1,0,22
Cc1nc(CN(C)Cc2cnc(S(=O)(=O)C(C)C)n2CCC(C)C)cs1,17,10
O=S(=O)(c1ccc(Nc2ccn(CCO)n2)cc1)C(F)(F)F,5,2
CCN(CC)C(=O)Cn1cc(SCC(=O)N2CC(C)OC(C)C2)c2ccccc21 (centres undefined),-1,-2
Cc1cccc(-n2nc([N+](=O)[O-])c(=Nc3ccc(I)cc3)n2O)c1,-1,-2
COCCNC(=O)C1(C)CCCN(Cc2ccc(Cl)c(Cl)c2)C1 (centres undefined),7,2
C=C(C)COc1ccccc1C(=O)NCCc1cc(=O)[nH]c(C)n1,12,8
CCC(C)N(Cc1cccc(OS(=O)(=O)c2ccc(NC(C)=O)cc2)c1)C(=O)NC(C)C (centres undefined),23,23
NC(=O)CC1CCCCN1c1ccc(-c2nc(-c3ccccc3F)no2)cn1 (centres undefined),-4,-6
COc1ccccc1C1NC(=O)NC(C)=C1C(=O)OCC1CCCO1 (centres undefined),-3,-3
CC(=O)NCCc1ccc(C(=O)Nc2ccc(C)cn2)cc1,-3,-4
COc1cc(NC(=O)Cn2cccc(S(=O)(=O)N3CCOCC3)c2=O)cc(OC)c1,-11,-10
O=C(CCS(=O)(=O)c1ccc2c(c1)CCC2)NC1CC1c1ccc(F)cc1 (centres undefined),12,9
CCC(C)N(CC(=O)N(Cc1ccccc1)Cc1sccc1C)C(=O)Nc1cccc(C)c1C (centres undefined),-10,-4
COc1ccc(CN(CC(O)COCC(C)C)CC2CCCO2)cc1 (centres undefined),-4,3
O=C(CCc1ccccc1)NCCSc1ncc(C(F)(F)F)cc1Cl,0,-3
O=C(Nc1ccccc1Cl)Nc1ccnn1C1CCN(Cc2nccs2)CC1,-6,-7
COc1cc(C)ccc1S(=O)(=O)N1CCC(c2cn(Cc3ccc(C(F)(F)F)cc3)c3ccccc23)CC1,17,1
CC(C)(C)c1ccc(S(=O)(=O)c2cnc(SCC(=O)Nc3ccccc3)[nH]c2=O)cc1,-7,-12
COc1ccc(C(=O)Oc2coc(CSc3nccn3C)cc2=O)cc1,13,2
O=c1cc(CN(Cc2cccs2)CC2CCCO2)nc2sccn12 (centres undefined),1,-4
Cc1nc2n(n1)C(=O)C(C(c1ccccc1)N1CCC3(CC1)OCCO3)S2 (centres undefined),0,-3
CN(Cc1nc2ccc(Cl)cc2[nH]1)Cc1nc(-c2ccccn2)no1,16,6
Cc1nn(CC(=O)Nn2cccc2)c(C)c1Cl,-5,-4
S=c1nn[nH]n1Cc1cccs1,0,6
CCc1ccc(CN(C)C(=O)c2cc(COc3cncc(Cl)c3)on2)cc1,-5,-7
Nc1ccc(Cl)c(S(=O)(=O)Nc2ccc(Cl)cc2)c1,1,52
OCC1(Cc2cccc(Cl)c2)CCCN(C2Cc3ccccc3C2)C1 (centres undefined),8,8
Cc1ccc(-c2nc(C(=O)OC(C)C(=O)N3CCCCCC3)cs2)cc1 (centres undefined),3,0
CCCCc1ccc(C(=O)Nc2ccc(-n3nc(OC)nc3-c3ccccc3C)cc2)cc1,2,4
O=C(O)CSc1nnc2[nH]c(=O)c3c(n12)CCCC3,-5,-11

# Structures shown so far containing a nitro group on carbon:
SMILES,NPYLR7 agonist,NPYLR7 agonist max-min
COc1ccc(C)cc1NC(=O)c1c([N+](=O)[O-])cnn1C,-1,-10
Cc1ccc(C(=O)Nc2ccc(N3CCc4ccccc4C3)c(C(=O)NCCN3CCOCC3)c2)cc1[N+](=O)[O-],16,16
CC1CCCC(N=c2c([N+](=O)[O-])nn(-c3ccccc3)n2O)C1C (centres undefined),2,3
Cc1cccc(-n2nc([N+](=O)[O-])c(=Nc3ccc(I)cc3)n2O)c1,-1,-2

# Screening data deposited in PubChem BioAssay by Fisher Drug Discovery Resource Center.
